# Compound activity from PubChem.
# Vaccinia Venus – qHTS for Stage-Specific Inhibitors of Vaccinia Orthopoxvirus: Venus Reporter Primary qHTS | Vaccinia virus Venus reporter expression, fluorescence | Potency, µM (doses to about 36.5 µM), inactives show at the highest dose activity change, negative = inhibition, usual class: inhibitors | actives 0.46% (n = 330,000) | AID 720580, 2013; active means well fitted inhibition curve with a large enough effect; inconclusive means small, poorly fitted or top-dose-only effect; inactive means no such curve, though single readings can be large or run the other way; tested in A549 cells; also: nearly all actives have a fitted effect of over 30% in size; inactives centre near -10
# Vaccinia mCherry – qHTS for Stage-Specific Inhibitors of Vaccinia Orthopoxvirus: mCherry Reporter Primary qHTS | Vaccinia virus mCherry reporter infection, fluorescence; about a quarter of the inactives have no number | Potency, µM (doses to about 36.5 µM), for the others: at the top dose activity change, negative = inhibition, most hits filed as inhibitors | actives 0.63% (n = 310,000) | AID 720579, 2013; active = well fitted inhibition curve with a large enough effect; inconclusive = small, poorly fitted or top-dose-only effect; inactive = no such curve, though single readings can be large or run the other way; tested in A549 cells; also: nearly all actives have a fitted effect of over 35% in size; inactives centre near -10
# Active calls of the source: *; i = inactive; ? = inconclusive; / = no result given; [ ] = remark or other dose. % is scaled to controls: 0 for no effect and ±100 for the full control effect; potency is read from the fitted curve at half-maximal effect. No enrichment for hits. About 0.82% of those tested had a hit in this group.
SMILES,Vaccinia Venus,Vaccinia mCherry
CCn1c(CNS(=O)(=O)c2ccc(Br)cc2)nnc1SC,-25%,i
CCOc1ccc(C(=O)Nc2cc(-c3cn4cccnc4n3)ccc2C)cc1OCC,-3%,-14%
COc1cccc(-c2nc3c(C#N)c[nH]n3c2NC2CCCCC2)c1OC,?,?
NC(=O)c1noc(C(=O)N(CC(=O)NC2CCCC2)Cc2ccc3c(c2)OCO3)c1N,-18%,/
COc1ccccc1NC(=O)c1ccc(NC(=O)COC(=O)CC(NC(=O)c2ccccc2Cl)c2ccccc2)cc1 (stereo not given),-9%,-9%
Cn1c(SCC(=O)Nc2ccc(Cl)cc2F)nnc1-c1ccco1,-7%,-12%
COc1cccc(NC(=O)c2oc3ccccc3c2NC(=O)C(C)(C)C)c1,-15%,-22%
CC(=O)c1ccc(NC(=O)c2cccc(S(=O)(=O)N3CCN(C)CC3)c2)cc1,-5%,0%
CCC(=O)Nc1nc(C)c(-c2csc(Nc3cccc(C(=O)O)c3)n2)s1,7%,i
COc1cc(/C=C(\C#N)c2nc3ccccc3[nH]2)c([N+](=O)[O-])cc1OCc1ccccc1,-12%,/
COC(=O)CN1C(=O)COc2ccc(S(=O)(=O)N3CCCCC3)cc21,-6%,-21%
CC(C)Cc1nnc(NC(=O)CCC(=O)N2CCN(CCOC(c3ccccc3)c3ccccc3)CC2)s1,-23%,-19%
O=C1CN(Cc2nc3cc(Cl)ccc3c(=O)[nH]2)CCN1,-21%,i
Cc1ccc(C([O-])=C(C(=S)NCc2ccccc2)[n+]2cccc(CO)c2)cc1[N+](=O)[O-],-7%,-14%
O=C(NCCc1ccccc1)C1(c2ccccc2)CCCC1,-8%,-16%
Cc1ccc(C)c(S(=O)(=O)NCc2cccnc2)c1,-9%,-6%
O=C(NCc1ccccc1)C1CCC1,-5%,-14%
CC1CCN(S(=O)(=O)c2ccc3nc(Nc4ccc(C#N)cc4)ccc3c2)CC1,-20%,?
Cc1ccc2nc(SCC(=O)c3c(N)n(C)c(=O)n(C)c3=O)[nH]c2c1,-3%,i
O=C(Cc1ccccc1)Oc1coc(CSc2ncccn2)cc1=O,14%,-4%
CCN1C(=O)N[C@@H](c2cccc(C(F)(F)F)c2)[C@H](C(C)=O)[C@H]1C,-15%,-17%
NNc1nc(-c2ccccc2)c2cc(Cl)ccc2n1,11%[7.34 µM],-8%[7.34 µM]
COc1ccc2c(c1OC)C(=O)OC2Nc1nc(-c2ccccc2)cs1 (stereo not given),?,/
COc1ccc(NS(=O)(=O)c2cccc(C(=O)NCC(c3ccccc3OC)N3CCCC3)c2)cc1 (stereo not given),-22%,-27%
CCCNC(=O)N1[C@H]2CC[C@@H]1C(C(=O)OC)=C(c1ccc(Cl)c(C(F)(F)F)c1)C2,-21%,i
CC(=O)N1CCN(CCN=CC2=C(O)CC(C)(C)CC2=O)CC1,-4%,-8%
O=C(c1ccccc1)c1ccc2nc(-c3ccc(NC(=O)c4ccccc4F)cc3)[nH]c2c1,?,/
Fc1ccc(-c2n[nH]c(=S)n2CC2CCCO2)cc1 (stereo not given),-10%,-9%
COc1ccc(/C=N/Nc2nc3ccccc3c(=O)[nH]2)cc1,-4%,i
CN(C)C(=O)CN(c1ccc(F)c(Cl)c1)S(C)(=O)=O,-15%,-17%

# Looked up above.
# CN(C)C(=O)CN(c1ccc(F)c(Cl)c1)S(C)(=O)=O | Vaccinia Venus = -15%
# COc1ccc(/C=N/Nc2nc3ccccc3c(=O)[nH]2)cc1 | Vaccinia Venus = -4%
# CCN1C(=O)N[C@@H](c2cccc(C(F)(F)F)c2)[C@H](C(C)=O)[C@H]1C | Vaccinia Venus = -15%

# Further structures follow:
SMILES,Vaccinia Venus,Vaccinia mCherry
Cc1nc2ccc(Cl)cc2c(=O)n1-c1ccccc1Cl,?,-29%
CCOC(=O)c1c(NC(=O)C2C3C=CC(CC3)C2C(=O)O)sc(C)c1CC (stereo not given),-19%,-3%
C=CCOCCN(CC)CC,-3%,-10%
CC(=O)N1CCOc2cc(S(=O)(=O)NCc3ccc(F)cc3)c(C)cc21,-1%,-12%
CCc1sc(C(=O)Nc2ccc(N3CCOCC3)cc2)cc1C,-21%,?
COc1ccc(-c2n[nH]c(=S)n2-c2cc(OC)ccc2OC)cc1,-10%,i
COc1cccc(NC(=O)CSc2nc(=O)[nH]c3c2CCCC3)c1,-7%[7.34 µM],-10%[7.34 µM]
CCC1(C2CCN(C(=O)c3ccc(C)c(C)c3)CC2)NC(=O)N(CCc2scnc2C)C1=O (stereo not given),-7%,i
CC(=O)NC(C)(c1ccccc1)c1nc(-c2cccc3cccnc23)cs1 (stereo not given),-17%,?
O=[N+]([O-])c1ccc(C[n+]2ccc(Cc3ccccc3)cc2)cc1,-2%,?
O=C(COc1cc(Cl)c(Cl)cc1Cl)Nc1cccc(O)c1,-29%,-12%
O=C(N/N=C/c1ccccn1)c1cc(-c2ccc(Cl)s2)[nH]n1,-22%,13µM*
COC(=O)c1ccc(/C=C/c2c(-c3ccc(OC)cc3)sc3ccccc23)cc1,?,?
O=P(Oc1ccc(Cl)cc1)(N1CC1)N1CC1,-3%,-25%
O=[N+]([O-])c1cc(Cl)cc2c1nc(NCCO)c1ccccc12,?,0.89µM*

# Four of the compounds above, with each value named:
SMILES: CCCNC(=O)N1[C@H]2CC[C@@H]1C(C(=O)OC)=C(c1ccc(Cl)c(C(F)(F)F)c1)C2
- Vaccinia Venus: -21%
- Vaccinia mCherry: i

SMILES: CC(=O)N1CCN(CCN=CC2=C(O)CC(C)(C)CC2=O)CC1
- Vaccinia Venus: -4%
- Vaccinia mCherry: -8%

SMILES: O=C(c1ccccc1)c1ccc2nc(-c3ccc(NC(=O)c4ccccc4F)cc3)[nH]c2c1
- Vaccinia Venus: ?
- Vaccinia mCherry: /

SMILES: Fc1ccc(-c2n[nH]c(=S)n2CC2CCCO2)cc1 (stereo not given)
- Vaccinia Venus: -10%
- Vaccinia mCherry: -9%

# Further entries follow:
SMILES,Vaccinia Venus,Vaccinia mCherry
CCOc1cc(/C=N/NC(=O)c2ccc(-c3csc(Nc4ccc(C)cc4)n3)cc2)ccc1OCC(=O)O,-23%,?
CCOC(=O)CC1NCCc2c1[nH]c1ccc(OC)cc21 (stereo not given),-9%,i
Cc1cccc(NS(=O)(=O)c2nnc(NC(=O)c3ccc(C)c(C)c3)s2)c1,-10%,?
COc1ccc(N(C(=O)c2ccncc2)S(=O)(=O)c2ccc3c4c(cccc24)C(=O)N3C)cc1,-8%,-27%
COc1ccc(/C=C(/NC(=O)c2cccs2)C(=O)N2CCOCC2)cc1OC,-13%,-10%
CCc1nnc(NC(=O)CCC(=O)N2CCCC2)s1,-4%,-14%
Cc1c(/C=N\NC(=O)c2ccc([N+](=O)[O-])cc2)cnn1C,-6%,-13%
COc1ccc(Cn2c(SCC(=O)NCc3ccc(Cl)cc3)nc3ccsc3c2=O)cc1,-8%,-13%
O=C(CSc1nc2ccccc2c(=O)n1-c1ccc(Cl)cc1)N/N=C/C=C/c1ccccc1[N+](=O)[O-],-6%,-9%
C[C@@H]1CC[C@H]2[C@@H](C)C(=O)O[C@@H]3O[C@@]4(C)CC[C@@H]1[C@]32OO4,-8%,-11%
COC(=O)c1ccc2nc(NC(=O)COC(=O)CSc3nc(C)cc(C)n3)sc2c1,-10%,i
Cc1ccc(C)c(N2CCN(S(=O)(=O)c3ccc4oc(=O)c5ncn(C)c5c4c3)CC2)c1,1%,-1%
CCc1nc2c(OCC(=O)c3ccc(Cl)cc3Cl)cccn2c1N(C=O)Cc1ccccc1,-15%,2%
O=C(Nc1ccc(Cl)cc1)c1nc[nH]c1C(=O)N1CCc2ccccc2C1,-23%,-19%
O=C(NCc1ccccn1)Nc1ccc(Cl)c(Cl)c1,-17%,-21%
c1ccc2c3c([nH]c2c1)C(C1CCCCC1)N(Cc1ncc[nH]1)CC3 (stereo not given),-21%,-16%
O=C1C=C(c2ccc(F)nc2)C[C@@H](c2ccc3c(c2)OCO3)C1,?,?
Cc1ccccc1OCc1nc2c3cnn(-c4ccccc4F)c3ncn2n1,-20%,-20%
CCCc1c(C(=O)OCC)nnc2c(-c3ccccc3)c(C)nn12,1%,-3%
CCCCC(NC(=O)COc1cc2c(c3oc(=O)cc(C)c13)CCC(C)(C)O2)C(=O)O (stereo not given),-17%,-16%
O=C1C(Oc2ccccc2)C(c2ccc3c(c2)OCO3)N1CCc1ccc(F)cc1 (stereo not given),15%,-19%
O=C(OCCOCCN=C1NS(=O)(=O)c2ccccc21)c1ccncc1,-20%,-17%[1.46 µM]
Cc1ccc(CSc2nc(N)cc(N)n2)cc1,-18%,-20%
COc1ccccc1/C=C/C(=O)NCC(=O)N/N=C(/C)c1ccco1,-8%,-1%
COc1ccccc1C(=O)N(Cc1cccs1)C1CCS(=O)(=O)C1 (stereo not given),-7%,-7%
COc1cc(/C=C/C(=O)OCC(=O)N2CCN(S(=O)(=O)c3ccc(C)cc3C)CC2)cc(Cl)c1OC,-14%,i
C[C@H]1CN([C@@H](C)CO)S(=O)(=O)c2ccc(Br)cc2O[C@H]1CN(C)C(=O)Cc1ccccn1,-14%,-4%
C=CCc1cc(C)cc(C)c1OCCn1cncn1,-13%,i
O=[N+]([O-])c1ccc(-c2cc(-c3ccncc3)nc3ccc4ccccc4c23)cc1,-6%,i
COc1ccc([C@@H]2CC=C(C(=O)O)[C@H](c3cccc(Cl)c3)N2S(=O)(=O)c2ccc(Cl)cc2)cc1,-10%,i
Cc1ccccc1-c1csc(C(O)c2ccc(F)c(F)c2)n1 (stereo not given),-10%,i
CC(=O)Nc1ccc(NC(=S)Nc2ccc(Br)cc2)cc1,-15%,14%
O=C(COC(=O)c1cc2c(s1)CCC2)Nc1ccc(F)cc1,-5%,-3%
COc1ccc(NC(=O)CCc2c(C)nc3nc(CNC(=O)OC(C)(C)C)nn3c2C)cc1OC,0%,7%
COCCN(Cc1ccc(OC)cc1)c1c(C)nc2ccc(C(=O)Nc3ccc(NC(C)=O)cc3)cn12,-11%,i
CCC(=O)C1=C(c2cccc([N+](=O)[O-])c2)N(C(=O)CC)n2c(nnc2-c2ccccc2)S1,-9%,-8%
COc1ccc(NC(=S)N2CCC(N(C)CC3CCCO3)CC2)cc1Cl (stereo not given),-18%,i
CCS(=O)(=O)Nc1ccc(-c2nnc(SCC(=O)c3cccc(OC)c3)o2)cc1,-6%,/
Cc1cccc(C)c1NC(=O)C1(C)CSCC(=O)N1CCOc1ccccc1 (stereo not given),-11%,-21%
Cc1c(NC(=S)NC(=O)C(C)(C)C)c(=O)n(-c2ccccc2)n1C,-14%,-11%
O=C(Cn1nc(-c2ccccc2Cl)ccc1=O)Nc1ccc(Br)cc1,-2%,i
CCOc1ccc(C2NC(=O)c3n[nH]c(C)c32)cc1 (stereo not given),-17%,i
C=Cc1ccc(CSc2nc(-c3ccc(OC)cc3)nc3c2Cc2c(CO)cnc(C)c2O3)cc1,-27%,-22%
COc1ccc(NS(=O)(=O)c2ccc(C)c(C(=O)O)c2)cc1,-10%,-10%
Cc1ccc(C2=NN(CC(=O)O)C(=O)CC2)cc1,0%,-4%
O=C1c2ccccc2-n2nnc(-c3ccccc3)c2C2c3ccccc3CCN12 (stereo not given),-11%,5%
CCC(C)(C)n1nnnc1C(c1cccs1)N1CC=C(c2ccc(F)cc2)CC1 (stereo not given),-26%,-23%
O=C(NCc1nnnn1-c1ccc(Cl)cc1)c1ccc(Br)o1,-16%,-14%
CSc1ncccc1C(=O)NC(C)C1CC2CCC1C2 (stereo not given),8%,i
CCc1noc(C)c1C(=O)Nc1ccc(Cl)c(S(=O)(=O)N2CCCCC2)c1,-24%,-5%
O=C(C1CCCCC1)N1C[C@@H](O)[C@H](n2cc(C3CC3)nn2)C[C@@H]1c1ccc(Cl)cc1,-15%,-13%
CC1=C(C(=O)Nc2ccccc2)C(c2cccn2C)n2ncnc2N1 (stereo not given),2%,1%
CCOC(=O)COc1nc(-c2ccc(Cl)cc2)cc(-c2ccco2)c1C#N,1%,-28%
Cc1ccc(N=C2C(=O)Nc3ccccc32)c(C)c1,-9%,-19%
COc1ccc(CCN2C(=O)c3ccccc3C2(O)c2ncc[nH]2)cc1OC (stereo not given),-12%,i
Cc1ccc(NC(=O)COC(=O)c2ccc([N+](=O)[O-])o2)cc1S(=O)(=O)N1CCCCCC1,-4%,i
S=C(N/N=C/c1ccc(Cl)c(Cl)c1)Nc1ccccc1Cl,-9%,-25%
CCOc1ccc(NC(=O)CN(C)C(=O)Cn2cnc3c2c(=O)n(C)c(=O)n3C)cc1OCC,-5%,-13%
Cc1ccn2cc(CCNC(=O)CC3CCCCC3)nc2c1,-8%,i
O=C(c1ccco1)N1CCN(S(=O)(=O)c2ccc(S(=O)(=O)NC3CCCC3)cc2)CC1,-8%,-26%

# Next part.
SMILES,Vaccinia Venus,Vaccinia mCherry
COc1ccccc1CN(C)C[C@@H]1OCc2cnnn2CCCC(=O)N([C@@H](C)CO)C[C@H]1C,-2%,-3%
CSc1ccc(/C=N/NC(=O)c2sccc2C)cc1,-19%,-2%
COC(=O)[C@@H](NS(=O)(=O)c1ccc(F)cc1Br)C(C)C,-3%,-18%
c1ccc(CCNc2ncnc3sccc23)nc1,-4%,i
CCOc1ccc(-n2c(CCC(=O)O)ccc2-c2ccc(Br)cc2)cc1,2%,-13%
CCN(CC)S(=O)(=O)c1ccc2c(c1)N(CC(=O)N1CCN(c3cccc(C)c3)C(C)C1)C(=O)CO2 (stereo not given),-14%,-11%
